Screens deposited in PubChem by several laboratories.
Beta apoptosis = beta cell apoptosis inhibition; protection from apoptosis, % (concentration not given with the values); INS-1E cytokine-induced death, ATP luminescence, 48 h; percent of positive-control rescue, neutral wells zero; AID 435005; 300,000 compounds, 0.8% hits;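 active = all replicates at 75% or more, or half of them and the mean; inconclusive = half reach 75% but not the mean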;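 note: 0% = cytokine-treated negative control wells and 100% = positive control rescue; higher means more ATP so stronger rescue from cytokine killing; wells of about 40 µL received 100 nL stock; the first replicate is given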
T cruzi inh = blocks replication of Trypanosoma cruzi; T. cruzi beta-gal in NIH3T3, luminescence, 90 h; inhibition, % (no concentration beside the values); 300,000 compounds, 1.4% hits;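 active = mean inhibition across valid replicates above about 55%, limit read from the data; inconclusive = mean below that limit but half or more replicates reach it; inactive = mean below it, under half of replicates reach it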;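 note: signal also drops with host cell toxicity which is not excluded here; 0% = plate median of DMSO wells and 100% = zero luminescence signal; higher percent means less beta-gal luminescence so fewer parasites; stock transfer was 50 nL into about 50 µL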
Bfl-1 A1 inh = inhibitors of the anti-apoptotic protein A1, read as caspase activation; MEF A1-2A-BIM cells, Caspase-Glo 3/7 luminescence, 3 h; percent of clofoctol response, vehicle zero; caspase activation, % (test concentration not listed); 330,000 compounds, 0.066% hits; AID 2462;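 active = over half of replicate activation scores above 10%, or exactly half above 10 with the replicate mean above 10; inconclusive = replicate mean below 10 yet half the replicates above 10; inactive = over half of replicates below 10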;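 note: wells of about 30 µL received 50 nL stock; many hits fall short of the cut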
RanGTP-Impb inh = inhibitors of RanGTP-importin-beta interaction, primary screen, biochemical, FRET, CFP-Ran, YFP-importin-beta, homogeneous. cell-free CFP-Ran/YFP-importin-beta FRET ratio. inhibition, % (concentration not given with the values). 300,000 compounds, 1.1% hits;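 active = most replicates above 15%; inconclusive = exactly half above 15%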;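 note: 0% = DMSO wells and 100% = Ran loaded with GDP instead of GTP; wells of about 40 µL received 100 nL stock; the first replicate is given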
Calb FLC = affects C. albicans growth with fluconazole | C. albicans CaCi-2 (fluconazole-resistant clinical isolate) + fluconazole, Alamar Blue growth, 48 h | growth inhibition, % (test concentration not listed) | 300,000 compounds, 0.57% hits;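 active = most replicates above 75%; inconclusive = exactly half above 75%; inactive = most below 75%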;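 note: all wells also contain fluconazole at 8 µg/ml as a sub-toxic cotreatment; 0% = median of DMSO wells and 100% = median of geldanamycin control wells; wells of about 8 µL received 7.5 nL stock; the first replicate is given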
MLL AF4-AF9 inh = MLL-AF4/AF9 protein interaction inhibition; P42568; AlphaScreen, biotin-AF4 peptide binding to FLAG-AF9; inhibition, % at 10 µM; 350,000 compounds, 0.47% hits;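 active = every replicate reaching a set inhibition limit, whatever the replicate mean, cut at about 25% in these data; inconclusive = mean inhibition reaches that limit but some replicates miss it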;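 note: 0% = plate neutral control median and 100% = total signal loss; the record names both 10 and 1 µM as test concentration; the first replicate is given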
Target sequence (P42568 whole entry, looked up): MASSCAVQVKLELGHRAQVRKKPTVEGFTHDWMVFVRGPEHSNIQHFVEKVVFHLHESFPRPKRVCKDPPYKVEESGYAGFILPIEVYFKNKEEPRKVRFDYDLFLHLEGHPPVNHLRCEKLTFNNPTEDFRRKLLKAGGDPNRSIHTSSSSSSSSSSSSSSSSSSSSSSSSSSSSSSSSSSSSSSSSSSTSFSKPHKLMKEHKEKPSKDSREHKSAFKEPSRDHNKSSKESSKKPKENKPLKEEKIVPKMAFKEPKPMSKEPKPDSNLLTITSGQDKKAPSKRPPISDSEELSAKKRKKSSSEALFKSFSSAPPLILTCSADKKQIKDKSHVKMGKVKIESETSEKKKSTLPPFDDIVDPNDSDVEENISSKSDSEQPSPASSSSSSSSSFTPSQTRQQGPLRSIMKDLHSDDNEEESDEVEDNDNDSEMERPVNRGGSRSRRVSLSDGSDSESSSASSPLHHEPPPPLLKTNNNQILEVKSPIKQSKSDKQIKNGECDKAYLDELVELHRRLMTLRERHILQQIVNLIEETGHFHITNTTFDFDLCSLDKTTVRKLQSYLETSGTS
Vif TR-FRET = HIV-1 Vif–A3G interaction blockers – biochemical, TR-FRET, GST-Vif 1-94, biotin-A3G peptide, dose response retest, primary screen (AID 1117319); 260,000 compounds, 0.57% hits; inhibition, %; hits with a dose series show IC50 in µM; TR-FRET GST-Vif / biotin-A3G peptide binding; higher % means a stronger effect; test concentration not given here; strong numbers were not always called active;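 active = above the screen mean plus three standard deviations and confirmed in dose response; inconclusive = results disagree or hit not tested in dose response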;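 note: Vif residues 1-94 fused to GST binding biotinylated APOBEC3G peptide 110-148; 0% = full assay without inhibitor and 100% = GST in place of GST-Vif; retest series ran down from 100 µM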
rRNA inh HTS = inhibitors of bacterial rRNA selective over humanized ribosomes. E. coli WT GFP vs humanized-ribosome RFP mutants, fluorescence, 24 h; stronger effect = lower value; DMSO median 0, no signal -100. GFP signal change (wild-type ribosome), % (no concentration beside the values). 350,000 compounds, 1.6% hits;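 active = significant combined selectivity score with lowered wild-type GFP, culture density cut under 30%, mutant RFP and density less affected; inactive = any of these conditions unmet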; note: one replicate is shown; some compounds called inactive have numbers as strong as hits
rRNA inh HTS OD600 = second read-out of rRNA inh HTS, no call of its own (marks repeat the call); OD600 change, %; measured here: OD600 growth;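 optical density of the mix in the first replicate; 0 = DMSO median and -100 = no signal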
rRNA inh HTS RFP = second read-out of rRNA inh HTS, no call of its own (marks repeat the call); RFP signal change, %; measured here: RFP humanized mutant strains;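 first replicate; 0 = DMSO median and -100 = no signal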
* = called active by the depositor; ? = inconclusive; / = no result given. This is a subset; count on the stated rates, not on these rows.

SMILES	Beta apoptosis	T cruzi inh	Bfl-1 A1 inh	RanGTP-Impb inh	Calb FLC	MLL AF4-AF9 inh	Vif TR-FRET	rRNA inh HTS	rRNA inh HTS OD600	rRNA inh HTS RFP
CN(Cc1nccs1)C(=O)c1cc(COc2cccc3cnccc23)on1	32	-23	0.1	2.6	3	-11	-8%	-12	-16	-1.7
COc1ccc(NS(=O)(=O)c2ccc(N3CCCCC3)c(NC(=O)C(C)NC(N)=O)c2)cc1 (stereo unspecified)	-2	/	-0.2	/	/	4.7	-6%	-7	-17	3.4
CN(CC(=O)Nc1ccccc1Sc1ccccc1)C1CCCCC1	7	8	0.1	-2.7	8	-1.3	1%	-38	-62	0.3
CCC(=O)Nc1ccc(NC(=O)/C=C/c2ccc(Cl)cc2)cc1	4	22	0.7	-1.2	-11	-3.3	7%	2	1	-0.1
CC(C)(C)c1ccc(-n2nc(C#N)c(Cl)cc2=O)cc1	/	66*	/	1.9	86*	4.2	-1%	-27	-40	-10
O=C(NCc1cccs1)C1CCC(CNS(=O)(=O)c2cccs2)CC1 (stereo unspecified)	-3	19	0.6	-0.5	-3	/	-4%	/	/	/
CCOc1ccccc1NC(=O)CSc1nnc(-c2ccncc2)o1	-4	-13	-0.1	-1.4	-2	-2.1	1%	12	6	-1.3
COc1ccc(/C=C2\SC(=N)N(c3ccc(F)cc3)C2=O)cc1	-4	-3	-1.0	2.2	26	-0.1	0%	4	0	-3.0
O=C(CCCn1c(=O)[nH]c2ccccc2c1=O)NC1CCCCCC1	0	-2	0.6	3.3	10	/	0%	/	/	/
COc1ccc(-c2ccc(C3C(C#N)=C(N)Oc4n[nH]c(C)c43)o2)cc1 (stereo unspecified)	-13	-2	-1.3	-136	-22	/	3%	/	/	/
O=C(Nc1nnc(C23CC4CC(CC(C4)C2)C3)s1)c1ccco1	1	3	0.4	-4.3	0	/	-2%	/	/	/
Nc1nonc1-n1nnc(C(=O)N/N=C/c2c(Cl)cccc2Cl)c1CN1CCOCC1	-3	-1	-0.9	?	-3	-3.2	/	-3	1	-0.7
O=C(CSc1nnc(CNc2ccc(F)cc2)n1CC1CCCO1)Nc1ccccc1 (stereo unspecified)	2	7	0.4	-1.3	-4	/	-7%	/	/	/
COc1cccc(C(=O)NCc2ccc(N3CCN(C(=O)OC(C)(C)C)CC3)cc2)c1	-1	19	0.4	-2.1	3	/	5%	/	/	/
N#Cc1ccc(-c2ccco2)nc1SCC(=O)c1ccc(Cl)cc1	-2	27	0.6	-9.9	2	/	?	/	/	/
COc1ccccc1-c1nc(C#N)c(N2CCN(C(c3ccccc3)c3ccccc3)CC2)o1	-6	23	0.9	-3.9	10	/	-3%	/	/	/
O=C(Nc1ccc(C(=O)N2CCOCC2)cc1)c1ccccc1[N+](=O)[O-]	2	-11	0.1	4.8	5	-0.8	59%	/	/	/
CN(C)CCN(Cc1ccccc1)c1nccc(N(C)C)c1C#N	-4	21	0.6	3.8	-6	0.4	-4%	12	-4	3.3
CC(=O)N/C(=C/c1ccc(OS(=O)(=O)c2ccc(C)cc2)cc1)C(=O)NCCCO	-8	1	0.5	0.3	1	-0.5	/	-7	-5	-6.7
O=C1Cc2ccccc2Sc2cc(OCCCN3CCCCC3)ccc21	-9	51	-0.5	5.2	20	/	-11%	/	/	/
Cc1ccccc1Nc1cc(C(=O)NCC2CCCO2)c2ccccc2n1 (stereo unspecified)	-1	-1	-0.6	-1.0	-5	6.7	/	-1	5	-1.2
Cc1ccccc1OCCC(=O)OCC(=O)Nc1cc(S(=O)(=O)N2CCOCC2)ccc1Cl	-2	-4	0.7	0.5	-3	-12	-2%	4	10	6.5
CCn1nc(NS(=O)(=O)c2ccccc2)c2cc3ccccc3nc21	/	-16	1.8	1.7	-3	1.5	/	-2	-21	0.8
COc1ccccc1/C=C/C(=O)Nc1cccc(S(=O)(=O)NC2=NCCCCC2)c1	-6	5	1.1	-3.4	-5	4.1	-9%	-18	1	10
O=C(C1CCN(S(=O)(=O)c2ccccc2)CC1)N1CCC1	-2	/	-0.6	/	/	0.5	2%	13	4	2.3

The list continues:
SMILES	Beta apoptosis	T cruzi inh	Bfl-1 A1 inh	RanGTP-Impb inh	Calb FLC	MLL AF4-AF9 inh	Vif TR-FRET	rRNA inh HTS	rRNA inh HTS OD600	rRNA inh HTS RFP
CC(C)(C)c1[nH]c2ccccc2c1/C=N/O	-1	-1	0.1	?	-7	/	13%	/	/	/
Cc1cccc(NC(=O)c2cc(=O)n(Cc3ccccc3)c(=O)[nH]2)c1	-2	-14	-0.7	1.1	21	-3.4	-9%	10	8	0.1
Cc1cc(Br)ccc1NC(=O)c1cnc(N2CCN(c3ccccn3)CC2)c2ccccc12	27	44	-1.2	2.1	-13	-0.2	-7%	15	8	0.2
Cc1ccc(C)c(C(C)NC(=O)c2ccc(Br)o2)c1 (stereo unspecified)	-7	-11	0.3	-2.6	-5	1.3	0%	/	/	/
COc1ccccc1/C=C/C=C1N=C(/C=C/c2ccc(Cl)cc2)OC/1=O	0	-2	-1.2	-5.2	-2	/	85%	/	/	/
c1ccc(CN2CCN(C3CCCSc4ccccc43)CC2)cc1 (stereo unspecified)	-1	12	2.0	6.3	-3	8.8	/	-30*	0.8*	-5.6*
Cn1cnc2c1c(=O)n(Cc1ccccc1C#N)c(=O)n2C	-1	0	0.1	3.1	-6	3.3	4%	8	5	-0.2
CCc1ccccc1NC(=O)CN(C)C(=O)COC(=O)c1ccco1	-6	/	0.3	/	/	-1.6	/	13	8	0.4
Cc1ccc(-c2nn(-c3ccccc3)cc2/C=N/NC(=O)c2ccc3c(c2)OCO3)cc1	110*	28	-0.5	0.8	34	/	5%	/	/	/
CCOC1(OCC)N=C(N)C2(C#N)C(c3ccc(NC(C)=O)cc3)C12C#N (stereo unspecified)	1	-12	2.0	-0.7	-24	/	16%	/	/	/
Cc1cc(Cc2ccc(N)c(C)c2)ccc1N	6	-4	-0.1	-3.3	-4	5.4	15%	6	-4	-0.8
COc1ccc(NC(=O)c2c(N)cnn2C)cc1	-1	-3	-0.7	-0.1	0	-2.3	/	6	-4	-0.6
CCn1c(O)c(/C=N/n2cnnc2)sc1=S	-10	7	-8.1	1.2	6	/	3%	/	/	/
Cc1ccc(C(=O)CSc2nc3c([nH]2)c(=O)n(C)c(=O)n3C)cc1	4	-8	-0.1	0.0	-1	-2.6	4%	1	3	0.0
CCOC(=O)CSc1n[nH]c(NC(=O)c2cccc(C(F)(F)F)c2)n1	-8	-19	0.7	?	8	/	-1%	/	/	/
COc1ccccc1C(=O)Nc1ccc2c(c1)nc(CCNC(=O)c1ccccc1)n2C	13	-1	0.4	4.0	-2	-2.8	-7%	-1	11	0.4
CC(=O)c1cccc(NC(=O)COC(=O)[C@@H](NC(=O)OCc2ccccc2)C(C)C)c1	-6	8	1.3	3.6	4	/	16%	/	/	/
O=C(CN1CCN(c2ccccn2)CC1)Nc1cccc(F)c1	-6	?	0.4	1.1	25	-1.3	6%	8	10	-1.5
CN(C)c1ccc2c(c1)Sc1cc(N(C)C)ccc1N2C(=O)c1ccccc1	-4	60*	1.8	?	34	-0.2	-3%	1	3	2.6
CC(C)(C)c1nn(-c2ccccc2)c2[nH]c(=O)c(C=O)cc12	-23	3	-0.1	-0.5	-1	-1.9	-8%	3	9	-4.7
CC(NC(=O)c1ccc(S(=O)(=O)N(C)C)cc1)c1ccccc1 (stereo unspecified)	0	-2	0.1	-4.1	5	/	0%	/	/	/
COc1cccc2cc(C(=O)Nc3cc(C)cc(C)c3)/c(=N/NS(=O)(=O)c3ccccc3)oc12	-3	-1	-0.1	0.3	-3	-0.5	1%	-2	-11	2.6
O=C(c1cc(=O)c2ccccc2o1)N1CCN(c2ccccc2)CC1	-1	-3	0.2	1.5	38	-0.7	/	/	/	/
Cc1cc(NC(=O)COC(=O)C2=NN(c3ccccc3)C(=O)CC2)c([N+](=O)[O-])cc1C	-4	/	?	/	/	1.9	/	4	6	-2.3
Cc1cc(Oc2ccc(C(C)(C)C)cc2)nc(N2CCOCC2)n1	2	18	0.5	6.6	13	/	4%	/	/	/

(more compounds)
SMILES	Beta apoptosis	T cruzi inh	Bfl-1 A1 inh	RanGTP-Impb inh	Calb FLC	MLL AF4-AF9 inh	Vif TR-FRET	rRNA inh HTS	rRNA inh HTS OD600	rRNA inh HTS RFP
O=C(CN1CCc2ccccc2C1)Nc1ccccc1F	-29	-10	-2.5	1.6	-4	3.3	-6%	7	11	0.3
Cc1cc2c(c(C)nn2-c2ccccc2)c(=O)o1	0	5	-1.2	3.9	0	/	11%	/	/	/
CC(C)(C)c1ccc(C2C3=C(CCCC3=O)NC3=C2C(=O)c2ccccc23)cc1 (stereo unspecified)	/	/	0.4	/	/	-4.2	-3%	-13	-2	-4.0
Oc1ccc(Br)cc1/C=N/N1CCN(Cc2ccccc2)CC1	-1	/	0.2	-0.1	6	/	2%	/	/	/
CCOC(=O)Cc1csc(NC(=O)CCN2C(=O)c3ccccc3C2=O)n1	-2	-6	-0.2	-4.3	0	/	11%	/	/	/
O=C1c2cccnc2C(O)N1Cc1cccs1 (stereo unspecified)	-5	39	-0.2	-1.1	0	/	8%	/	/	/
Cc1cccc2sc(NC(=O)[C@H](C)N3C(=O)C4CC=CCC4C3=O)nc12 (stereo partly specified)	-4	-18	0.9	-0.4	-8	4.4	/	-10	3	3.0
N#CC1(C#N)C(c2ccccc2)OC23CCCCC2C1(C#N)C(=N)O3 (stereo unspecified)	-4	5	1.2	42*	-2	/	?	/	/	/
CCCCCCc1c(C)c2ccc(OCC(=O)N[C@@H](Cc3ccccc3)C(=O)O)cc2oc1=O	-6	12	-0.4	-4.4	9	-1.4	/	/	/	/
Cc1sc2nc(SCC(=O)NCc3ccco3)[nH]c(=O)c2c1C	1	/	0.7	/	/	7.5	-4%	-5	-5	0.7
CN(CC(=O)Nc1ccc(F)cc1)C(=O)COC(=O)COc1ccc(C#N)cc1	-5	-10	0.2	3.0	0	-22	-10%	4	7	-1.4
COc1ccc(C(=O)CSc2nc(C)cc(=O)[nH]2)cc1	0	6	2.8	-3.2	9	/	0%	/	/	/
Cc1nnc(SCC(=O)OC2CC(C)CCC2C(C)C)[nH]c1=O (stereo unspecified)	1	15	0.3	-0.2	18	/	11%	/	/	/
Nc1cc(C(F)(F)F)ccc1-n1cccc1	-5	-29	-0.2	?	7	-0.3	12%	0	5	2.7
CCOC(=O)c1sc(NC(=O)CSc2nc(O)c(Cc3ccccc3)c(=O)[nH]2)nc1C	-5	-20	-0.6	1.7	-1	-1.1	/	9	9	-5.3
O=C(NCc1cc(C(F)(F)F)cc(C(F)(F)F)c1)C1CC(c2ccc(C(F)(F)F)cc2)=NO1 (stereo unspecified)	-1	-5	0.8	-2.0	5	-17	/	-5	-6	-0.4
Cc1ccc(C(=O)NCc2cccs2)cc1S(=O)(=O)N1CCCCC1	-11	21	0.6	2.3	10	1.1	-5%	-19	-12	-3.1
Cc1ccc2c(c1)C(=O)C(=O)N2CCCOc1ccccc1C	7	6	0.8	-0.7	8	11	-2%	-38	-34	-11
